Screens deposited in PubChem BioAssay by several laboratories.
CSC inhib = blocks cancer stem cells | hit rate 1.1% among 300,000 | AID 2717 | inhibition, % at 7.5 µM | cancer stem cell-like cells viability, luminescence;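 active = mean at 75% or more and at least half the replicates too; inconclusive = mean and replicates disagree; tested in HMLE shEcad cells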;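 also: 0% = median of negative and 100% = median of positive control wells; the first replicate is given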
HIV Env fusion = HIV envelope-mediated fusion inhibition; HeLa-JRFL Env/CEM21 cell fusion, luciferase; inhibition, % at 12.3 µM; hit rate 1.1% among 360,000; AID 651610;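 active = mean replicate inhibition score of at least 50 and every replicate individually at or above 50; inconclusive = only one of the two criteria met; inactive = mean below 50 and not all replicates reaching 50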;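 also: 0% = plate neutral controls and 100% = maraviroc near 300 nM; one replicate is shown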
eIF4H inh = inhibitors of RNA binding by human eIF4H; Q15056; eIF4H fluorescence polarization binding assay; inhibition, % at 35 µM; hit rate 0.94% among 290,000;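 active = 50% or more with normal probe brightness, or confirmed in later tests; inconclusive = above 50% with abnormal brightness, or retests that disagree; inactive = below 50% or failed in later tests; about a fifth of its hits are not listed in these tables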;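 also: calls also rest on retests at 20 µM and on dose response follow-up; 0% = protein and probe with vehicle and 100% = probe without protein; strong numbers were not always called active; many hits fall short of the cut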
UUG fidelity = modulators of start codon recognition fidelity in yeast. S. cerevisiae UUG-firefly luciferase reporter, luminescence/redox ratio. activity score, % at 18.7 µM. AID 602363. hit rate 0.13% among 350,000;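 active = replicate mean at a twofold rise or more, about +100% in these data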;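 also: firefly luciferase made from a UUG start codon reports start codon fidelity; reporter light over untreated wells divided by growth signal over untreated wells; some hits fall short of that in this replicate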
Rce1 inh = yeast Ras-converting enzyme inhibition; yeast membranes, quenched prenylated peptide cleavage fluorescence; hit rate 0.27% among 290,000; calls only; Q03530;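 active = fall in fluorescence gain of 50% or more versus controls, with final raw signal at or below 3038400; inconclusive = same 50% fall but final raw signal above 3038400; inactive = fall in fluorescence gain under 50%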;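 also: plate controls were neutral control wells for no effect and wells lacking membranes for full effect; tested at 10 µM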
PABP polyA inh = blocks human PABP binding to poly(A) RNA; fluorescence polarization; inhibition, % at 35 µM; hit rate 1% among 290,000;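 active = 50% or more with normal probe brightness, or confirmed in later tests; inconclusive = above 50% with abnormal brightness, or retests that disagree; inactive = below 50% or failed in later tests; about a fifth of its hits are not listed in these tables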;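 also: calls also rest on retests at 20 µM and on dose response follow-up; controls were probe without protein and protein plus probe with vehicle; some compounds called inactive have numbers as strong as hits; many hits fall short of the cut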
Target sequence (P11940 whole entry, looked up): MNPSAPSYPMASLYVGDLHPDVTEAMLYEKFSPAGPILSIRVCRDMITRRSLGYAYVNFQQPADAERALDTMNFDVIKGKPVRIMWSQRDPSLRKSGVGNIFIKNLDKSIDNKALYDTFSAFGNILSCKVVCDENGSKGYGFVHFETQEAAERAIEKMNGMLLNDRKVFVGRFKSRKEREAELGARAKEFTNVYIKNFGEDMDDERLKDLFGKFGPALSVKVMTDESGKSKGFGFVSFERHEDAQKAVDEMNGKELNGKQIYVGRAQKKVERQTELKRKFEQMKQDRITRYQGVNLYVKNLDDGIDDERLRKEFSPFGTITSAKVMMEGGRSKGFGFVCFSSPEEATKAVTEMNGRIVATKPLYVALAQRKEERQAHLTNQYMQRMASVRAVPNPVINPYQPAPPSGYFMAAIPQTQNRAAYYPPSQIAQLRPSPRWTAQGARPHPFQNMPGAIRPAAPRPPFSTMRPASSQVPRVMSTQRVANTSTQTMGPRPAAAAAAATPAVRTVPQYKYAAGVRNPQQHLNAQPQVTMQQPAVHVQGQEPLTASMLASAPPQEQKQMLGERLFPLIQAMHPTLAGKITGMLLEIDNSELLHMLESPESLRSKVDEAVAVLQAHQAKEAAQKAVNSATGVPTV
MT1-MMP act inh = blocks activation of human MT1-MMP; P50281; HT1080 RFP-PRO-GFP cells, GFP/RFP ratio fluorescence, overnight; percent of plate control window, DMSO zero; GFP/RFP ratio change, % at 20 µM; hit rate 0.061% among 360,000;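 active = GFP/RFP ratio change of at least 30% with cell ATP level not reduced by more than half and red fluorescence within 50% of control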; also: strong numbers were not always called active
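Test system: HT1080 RFP-PRO-GFP cells; Benchmarks: DMSO and RFP-L50D-GFP cell wells; Timing: cells overnight before dosing, compound overnight, 37 °C, 5% CO2; Compound: one 20 µM compound dose with 1% DMSO; Read-out: GFP/RFP fluorescence ratio.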
eIF4H inh retest = second read-out of eIF4H inh, no call of its own (marks repeat the call); inhibition, %; compound at 20 µM; confirmation average;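 mean of two retest wells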
PABP polyA inh retest = also measured in PABP polyA inh; calls as there; inhibition, %; compound at 20 µM; confirmation repeats;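 mean of two retest wells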
MT1-MMP act inh RFP = recorded beside MT1-MMP act inh, whose call it bears; RFP signal change, %; measured here: RFP expression control read;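 0 = vehicle wells; hits needed this value within 50% of zero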
* marks the source's active call; other numbers are inactive results; i = inactive; u = inconclusive; x = no result given. An excerpt; the hit share may differ from the screen's.

SMILES | CSC inhib | HIV Env fusion | eIF4H inh | UUG fidelity | Rce1 inh | PABP polyA inh | MT1-MMP act inh | MT1-MMP act inh RFP | others
C[C@H](O)[C@@H]1CN2CCc3c([nH]c4ccccc34)[C@@H]2C[C@@H]1N(C)C(=O)Nc1ccc(Br)cc1 | x | -23 | x | 3 | x | x | 5 | 6
COc1cc2c(cc1OC)C(C1(O)CCCCC1)NCC2 (stereo not given) | -19 | 16 | -5 | -16 | i | 12 | -1 | 2
NC(=O)NC(c1ccccc1)c1cccc2ccccc12 (stereo not given) | -11 | x | -15 | -4 | i | 2 | 1 | -4
COc1ccc(CC(N)c2csc(NC(=O)NC(c3ccccc3)c3ccccc3)n2)cc1 (stereo not given) | x | -50 | x | -4 | x | x | -7 | -7
COc1ccc(CN2C(=O)[C@@H]3Cc4c([nH]c5ccccc45)C(C)(C)N3C2=O)cc1 | 16 | 7 | x | 1 | i | x | 2 | -17
COc1ccc(NC(=O)c2ccc3c(c2)OCCO3)cc1OC | -16 | -25 | 0 | -16 | i | -3 | -5 | -1
Cc1ccc(S(=O)(=O)N2CCC(C(=O)NCCN3CCOCC3)CC2)cc1C | x | 3 | -6 | 2 | i | 0 | -1 | 2
COc1cc(NS(=O)(=O)c2ccc(N/C=C\C(=O)c3ccc(C)cc3)cc2)nc(OC)n1 | -1 | x | x | -1 | i | x | 3 | 0
CCN(CC(=O)N1CCOCC1)S(=O)(=O)c1cc(Cl)ccc1Cl | -2 | -18 | -3 | -8 | i | -2 | -4 | 0
Cc1cc(C(=O)Nc2ccccc2Cl)c2ccccc2n1 | x | -29 | -6 | -12 | i | -9 | 0 | 1
CCn1c(SCC(=O)Nc2ccccc2)nnc1-c1cccs1 | 3 | -3 | 5 | 4 | i | -5 | 0 | -4
CC1CCc2c(sc3ncn(CC(=O)N=Nc4c(O)[nH]c5ccccc45)c(=O)c23)C1 (stereo not given) | 1 | 19 | 4 | x | i | 4 | -2 | 3
CCOCCCNC(=O)Cn1cnc2sc(C)c(S(=O)(=O)N3CCN(c4ncccn4)CC3)c2c1=O | -6 | 4 | -3 | x | i | 2 | -4 | 0
S=C(NCc1ccccc1)N1CCc2ccccc2C1 | x | -24 | 13 | x | i | u | 4 | -2
C=CCn1c(SCC(N)=O)nnc1-c1cc(Br)ccc1O | -4 | 6 | -6 | -20 | i | -6 | -2 | 6
c1ccc2c(c1)nc1n2C2(N3CCOCC3)CCCC2C1N1CCOCC1 (stereo not given) | x | -80 | 57* | -21 | x | 46* | -8 | 6 | eIF4H inh retest=76*;PABP polyA inh retest=89*
O=C(O)CCCC(=O)N1CCN(c2ncccn2)CC1 | -16 | -3 | 5 | -18 | i | 10 | 3 | 0
Cc1ccc(S(=O)(=O)Nc2ccc3c(c2)n(C)c(=O)n3C)c(C)c1 | 16 | -1 | 9 | x | i | 9 | 8 | -6
CCCN(CC(=O)Nc1ccccc1OC)C(=O)c1cccc(S(=O)(=O)Nc2ccc(OC)cc2)c1 | -10 | -28 | x | 19 | i | x | 2 | 2
O=C(Cn1cnc2c(nnn2Cc2ccc(Cl)cc2)c1=O)OCc1ccccc1 | 4 | -4 | -12 | -13 | i | -18 | 4 | 1
O=C(CCc1nnc2ccc(N3CCC4(CC3)OCCO4)nn12)Nc1ccc(F)cc1 | -12 | -9 | -3 | -10 | i | 6 | 4 | 9
CC1(C)C2(C#N)C(N)=NC3(OCCO3)C12C#N (stereo not given) | 0 | x | -3 | 8 | i | -4 | 7 | 2
O=C(O)c1ccc(CSc2ncn[nH]2)cc1 | -1 | x | -3 | -13 | i | 1 | 0 | 3
COC(=O)NC1CSCC1OC(=O)CN1C(=O)c2ccccc2C1=O (stereo not given) | 4 | -70 | -3 | 1 | i | -2 | 8 | 4
C/C(C/C(C)=C1/SC(=S)NC1=O)=C1\SC(=S)NC1=O | x | 11 | 66 | x | x | 20 | -20 | 8 | eIF4H inh retest=-10;PABP polyA inh retest=-3
COC(=O)Cn1c2c(c3cc(C)ccc31)CCCC2 | -3 | 7 | -1 | -26 | i | 8 | -3 | 0
COc1ccccc1/C=N/Nc1nc(C)cc(=O)[nH]1 | x | -21 | x | -22 | x | x | 1 | 4
CC(C)OC(=O)c1cn(-c2ccccc2)nc1-c1ccco1 | 15 | -27 | 5 | -28 | i | 0 | -15 | 11
O=C(O)C1C2C=CC(O2)C1C(=O)Nc1ccc(S(=O)(=O)N2CCc3ccccc32)cc1 (stereo not given) | -11 | 0 | 8 | -12 | i | 4 | 5 | 2
CCOc1c(C(N)=O)c(-c2ccccc2)c2c(=O)[nH]c3ccccc3n12 | -1 | x | -1 | -30 | i | 7 | 2 | 0
CN(C)c1cc[nH]c(=O)c1C#N | -10 | x | -5 | -19 | i | -9 | -2 | -1
Cc1c(C(=O)O)cccc1-c1ccc(/C=C2\SC(=O)NC2=O)o1 | -6 | -6 | 54* | -27 | i | 34* | 12 | -3 | eIF4H inh retest=92*;PABP polyA inh retest=58*
CN(c1ccc(C(=O)NC2CCCC2)cc1)S(=O)(=O)c1ccc(Cl)cc1 | 8 | 21 | -1 | -9 | i | 1 | 1 | -1
O=C(c1ccccn1)N1CCN(S(=O)(=O)c2ccc(F)cc2)CC1 | -10 | -7 | 7 | x | i | 8 | 3 | 6
CSCCC(NC(=O)C1CCC(C)CC1)C(=O)Nc1ccc(NC(C)=O)cc1 (stereo not given) | -5 | -12 | -1 | -24 | i | -3 | 2 | 1
CN1c2ccccc2C(C)(C)C12C=Nc1c(ccc3ccccc13)O2 (stereo not given) | 23 | x | -13 | x | i | -3 | 0 | 4
COc1cc(C2C(C#N)=C(N)Oc3c2ccc2ccccc32)ccc1OCC(=O)Nc1ccc(C)cc1 (stereo not given) | 37 | -33 | -15 | 2 | i | -4 | -10 | -10
Cc1nc(C2CCCCC2)c(-c2ccccc2)c(N2CCOC2=O)c1C | -22 | -20 | x | 21 | i | x | -15 | -11
CCn1c(SCC(=O)NC(C)(C)C)nnc1-c1ccccn1 | 7 | x | -2 | x | i | -8 | 2 | 2
O=c1c2ccccc2nc(-c2ccccc2)n1Cc1ccc(Cl)cc1 | 40 | -29 | -2 | 17 | i | -5 | x | x
COc1ccc(OC)c(CNC(=O)c2cc(=O)[nH]c3ccc(S(=O)(=O)N4CCCC4)cc23)c1 | -8 | 7 | 2 | x | i | -7 | x | x
CC(CN1CCN(C)CC1)OC(=O)c1cccc(Cl)c1 (stereo not given) | -5 | 16 | 4 | 8 | i | -2 | -1 | 3
CCC(C)(NC(=O)c1ccccn1)C(=O)NC1CCCCC1 (stereo not given) | 1 | x | -2 | -6 | i | -1 | 0 | 1
OCC1(CCOc2ccccc2)CCN(Cc2ccc3cccc(F)c3n2)CC1 | -4 | 14 | 1 | -13 | i | -12 | 5 | 4
COc1ccc(C)cc1NC(=O)CSc1nc2ccccc2nc1N1CCCC1 | 6 | 37 | -6 | -9 | i | -4 | -5 | 2
CN1C(=O)CC(N2CCN(C(=O)c3ccccc3)CC2)C1=O (stereo not given) | -7 | x | 11 | x | i | 1 | 1 | 4
CN1CCN(C2CC(=O)N(c3ccc4c(c3)OCCO4)C2=O)CC1 (stereo not given) | -10 | -9 | -8 | -8 | i | 18 | 4 | 3
O=C(N/N=C/c1ccccn1)NC12CC3CC(CC(C3)C1)C2 | 0 | -5 | -1 | -10 | i | 14 | 5 | 6
CC(=O)Nc1ccc(C(=O)OCC(=O)NC2CCCCCC2)cc1 | x | 17 | x | -6 | x | x | 1 | 5
COc1ccc(N(CC(=O)Nc2ccc3c(c2)OCO3)S(C)(=O)=O)c(OC)c1 | 0 | -43 | -5 | 1 | i | 2 | -2 | -1
CCS(=O)(=O)c1ccc(O)c(NC(=O)Nc2ccccc2)c1 | -5 | x | -5 | -21 | i | -12 | 9 | 4
CN(C)c1cc(Nc2ccc(O)cc2)c([N+](=O)[O-])c2nonc12 | 11 | 16 | -11 | -15 | i | 1 | 8 | 5
COC(=O)c1sccc1NC(=O)c1cc(C)on1 | -8 | x | 10 | -14 | i | -5 | 0 | 2
O=C1CC(NS(=O)(=O)c2ccc(F)cc2)CN1c1ccc2c(c1)OCCO2 (stereo not given) | 0 | 5 | x | -6 | i | x | -1 | 0
COc1ccc(OCCOC(=O)c2cccs2)cc1 | -3 | -27 | -3 | -37 | i | 6 | -1 | 3
C=CCS/C(N)=N\N=C\c1c(O)ccc2ccccc12 | 2 | -127 | 6 | -25 | i | 2 | 5 | 7
Cc1cc(C)n(-c2ccc(OCC(=O)O)nn2)n1 | -1 | -14 | -3 | -13 | i | -45 | 2 | 2
O=c1[nH]c2ccc(Cl)cc2c(-c2ccccc2)c1CN1CCOCC1 | -1 | -59 | 6 | -14 | x | 40 | -4 | 2
Fc1ccc(CN2CCCCCCC2)c(F)c1 | 1 | 29 | 2 | 8 | x | 17 | 1 | 5
Cc1c(NC(=O)COC(=O)c2c3c(nc4ccccc24)CCCC3)c(=O)n(-c2ccccc2)n1C | 0 | -55 | 6 | x | i | -4 | 1 | 1
O=C(C1CC1)N1CCc2cc(Br)c(S(=O)(=O)N3CCCCCC3)cc21 | x | 13 | x | -6 | x | x | 0 | -6

6 entries from above, ordered by number of heavy atoms, smallest number first.
SMILES | CSC inhib | HIV Env fusion | eIF4H inh | UUG fidelity | Rce1 inh | PABP polyA inh | MT1-MMP act inh | MT1-MMP act inh RFP | others
Fc1ccc(CN2CCCCCCC2)c(F)c1 | 1 | 29 | 2 | 8 | x | 17 | 1 | 5
Cc1cc(C)n(-c2ccc(OCC(=O)O)nn2)n1 | -1 | -14 | -3 | -13 | i | -45 | 2 | 2
O=C(N/N=C/c1ccccn1)NC12CC3CC(CC(C3)C1)C2 | 0 | -5 | -1 | -10 | i | 14 | 5 | 6
CN(C)c1cc(Nc2ccc(O)cc2)c([N+](=O)[O-])c2nonc12 | 11 | 16 | -11 | -15 | i | 1 | 8 | 5
CN1CCN(C2CC(=O)N(c3ccc4c(c3)OCCO4)C2=O)CC1 (stereo not given) | -10 | -9 | -8 | -8 | i | 18 | 4 | 3
O=c1[nH]c2ccc(Cl)cc2c(-c2ccccc2)c1CN1CCOCC1 | -1 | -59 | 6 | -14 | x | 40 | -4 | 2

Quoted at random: 3 records from the list.
SMILES | CSC inhib | HIV Env fusion | eIF4H inh | UUG fidelity | Rce1 inh | PABP polyA inh | MT1-MMP act inh | MT1-MMP act inh RFP | others
CC(=O)Nc1ccc(C(=O)OCC(=O)NC2CCCCCC2)cc1 | x | 17 | x | -6 | x | x | 1 | 5
CN1C(=O)CC(N2CCN(C(=O)c3ccccc3)CC2)C1=O (stereo not given) | -7 | x | 11 | x | i | 1 | 1 | 4
Cc1c(NC(=O)COC(=O)c2c3c(nc4ccccc24)CCCC3)c(=O)n(-c2ccccc2)n1C | 0 | -55 | 6 | x | i | -4 | 1 | 1
